From PubChem
TDP1 inh: TDP1 (human) enzyme inhibition; Potency, µM (series often up to 130 µM), inactives show at the top dose activity change, negative = inhibition, usual class: inhibitors; 350,000 tested, 0.28% active; recombinant TDP1, AlphaScreen DNA substrate cleavage; active means well fitted inhibition curve with a large enough effect; further: nearly all actives have a fitted effect of over 40% in size
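Here, a 5' biotin and 3' phosphotyrosine-FITC DNA oligonucleotide reports Tdp1 activity: intact substrate bridges AlphaScreen beads, while cleavage leaves a 3' phosphate and drops signal. All incubations at room temperature.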
* hit, by the source's call; & = joins results of further samples; [ ] = another dose, or the depositor's remark. On the % scale 0 is the no-effect control and ±100 the full control effect; potency means the concentration at half of the fitted maximal effect. Only part of the results is shown, and most or all hits are left out here.

TDP1 inh | SMILES
5% | CC(C)C(NS(=O)(=O)c1cccc2nsnc12)C(=O)N1CCc2ccccc2C1 (stereo unspecified)
-2%[56.1 µM] | Cc1ccc(S(=O)(=O)NC(=O)NN2C[C@H]3CCC[C@@H]3C2)cc1
4% | O=c1[nH]n(CC2COC3(CCCCC3)O2)c(=O)c2ccccc12 (stereo unspecified)
2% | COC(=O)Cn1c(=O)n(CCc2ccccc2)c(=O)c2c3c(sc21)CCCC3
0% | Cc1noc(C)c1COc1ccc(C(=O)NCC2CCCO2)cc1 (stereo unspecified)
1% | CC(C)C(=O)Nc1cccc(C(=O)NCc2ccc(S(N)(=O)=O)cc2)c1
-4% | COC(=O)c1ccc(NCC(=O)c2ccccc2)cc1
3% | CCCCOc1ccc(/C(O)=C2/C(=O)C(=O)N(Cc3cccnc3)C2c2ccncc2)c(C)c1 (stereo unspecified)
1%&19% | C[C@]12C=CC(=O)C=C1CC[C@@H]1[C@@H]2C(=O)C[C@@]2(C)[C@H]1CC[C@]2(O)C(=O)CO
8% | CC1=C(C(=O)Nc2cc(C)ccn2)C(c2ccc(C)cc2)C2=C(CCCC2=O)N1 (stereo unspecified)
5% | CC1(C)Cc2c(C#N)c(SCCC#N)nc(N3CCOCC3)c2CS1
0% | CCn1c(Cc2ccccc2)nnc1SCC(=O)Nc1ccc(S(N)(=O)=O)cc1

Gathered by group, the entries above containing sulfur (six)
TDP1 inh | SMILES
5% | CC(C)C(NS(=O)(=O)c1cccc2nsnc12)C(=O)N1CCc2ccccc2C1 (stereo unspecified)
-2%[56.1 µM] | Cc1ccc(S(=O)(=O)NC(=O)NN2C[C@H]3CCC[C@@H]3C2)cc1
2% | COC(=O)Cn1c(=O)n(CCc2ccccc2)c(=O)c2c3c(sc21)CCCC3
1% | CC(C)C(=O)Nc1cccc(C(=O)NCc2ccc(S(N)(=O)=O)cc2)c1
5% | CC1(C)Cc2c(C#N)c(SCCC#N)nc(N3CCOCC3)c2CS1
0% | CCn1c(Cc2ccccc2)nnc1SCC(=O)Nc1ccc(S(N)(=O)=O)cc1
